# Screening data from PubChem BioAssay.
# A1 inh – inhibitors of the anti-apoptotic protein A1, read as caspase activation; MEF A1-2A-BIM cells, Caspase-Glo 3/7 luminescence, 3 h; percent of clofoctol response, vehicle zero; 0.066% of 330,000 active; AID 2462; caspase activation, % (test concentration not listed);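 active means over half of replicate activation scores above 10%, or exactly half above 10 with the replicate mean above 10; inconclusive means replicate mean below 10 yet half the replicates above 10; inactive means over half of replicates below 10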;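 further: wells of about 30 µL received 50 nL stock; many hits fall short of the cut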
# Calb FLC – C. albicans growth modulation with fluconazole. C. albicans CaCi-2 (fluconazole-resistant clinical isolate) + fluconazole, Alamar Blue growth, 48 h. growth inhibition, % (test concentration not listed). 0.57% of 300,000 active. AID 1979;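 active means most replicates above 75%; inconclusive means exactly half above 75%; inactive means most below 75%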;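 further: all wells also contain fluconazole at 8 µg/ml as a sub-toxic cotreatment; 0% = median of DMSO wells and 100% = median of geldanamycin control wells; wells of about 8 µL received 7.5 nL stock; the first replicate is given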
# T cruzi inh – T. cruzi replication inhibition; T. cruzi beta-gal in NIH3T3, luminescence, 90 h; AID 1885; 1.4% of 300,000 active; inhibition, % (concentration not given with the values);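 active means mean inhibition across valid replicates above about 55%, limit read from the data; inconclusive means mean below that limit but half or more replicates reach it; inactive means mean below it, under half of replicates reach it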;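 further: signal also drops with host cell toxicity which is not excluded here; 0% = plate median of DMSO wells and 100% = zero luminescence signal; higher percent means less beta-gal luminescence so fewer parasites; stock transfer was 50 nL into about 50 µL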
# rRNA inh HTS – inhibits bacterial ribosomal RNA function over humanized ribosomes | E. coli WT GFP vs humanized-ribosome RFP mutants, fluorescence, 24 h; active compounds read low; DMSO median 0, no signal -100 | GFP signal change (wild-type ribosome), % (test concentration not listed) | 1.6% of 350,000 active | AID 720706;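 active means significant combined selectivity score with lowered wild-type GFP, culture density cut under 30%, mutant RFP and density less affected; inactive means any of these conditions unmet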; further: one replicate is shown; some compounds called inactive have numbers as strong as hits
# Beta2AR agonist – agonists of human beta-2 adrenergic receptor inducing internalization. P07550. Am2.2-beta2AR cells, FAP receptor internalization, flow cytometry; reference of the scale not given here. response, % (no concentration beside the values). 0.43% of 340,000 active. AID 504454;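 active means response above a set limit, near 3 SD of response in nonfluorescent compounds, cut at about 42% in these data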;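 further: stock transfer was 100 nL into about 11 µL; a reference agonist was the positive control; negative values mostly stem from fluorescent compounds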
# Target sequence (P07550 whole entry, looked up): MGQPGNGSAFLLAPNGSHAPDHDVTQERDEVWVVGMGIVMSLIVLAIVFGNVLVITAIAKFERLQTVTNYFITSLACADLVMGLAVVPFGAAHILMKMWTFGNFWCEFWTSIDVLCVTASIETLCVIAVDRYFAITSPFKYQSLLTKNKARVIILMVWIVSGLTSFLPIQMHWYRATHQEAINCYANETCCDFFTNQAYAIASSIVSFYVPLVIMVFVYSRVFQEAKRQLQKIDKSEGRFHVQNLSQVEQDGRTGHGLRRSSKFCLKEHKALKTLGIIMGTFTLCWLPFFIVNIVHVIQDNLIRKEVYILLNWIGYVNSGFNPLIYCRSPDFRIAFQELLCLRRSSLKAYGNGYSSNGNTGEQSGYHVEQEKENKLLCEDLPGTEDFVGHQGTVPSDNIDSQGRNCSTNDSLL
# ALR inh – inhibitors of human sulfhydryl oxidase ALR | purified ALR, DTT oxidation, H2O2 HRP-luminol luminescence | 3.8% of 290,000 active | P55789 | inhibition, % (concentration not given with the values);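 active means mean and each replicate at 75% or more; inconclusive means only one of the two met; inactive means neither met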;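 further: stock transfer was 7.5 nL into about 7.5 µL; 0% = neutral wells and 100% = wells with inactivated enzyme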
# Target sequence (P55789 whole entry, looked up): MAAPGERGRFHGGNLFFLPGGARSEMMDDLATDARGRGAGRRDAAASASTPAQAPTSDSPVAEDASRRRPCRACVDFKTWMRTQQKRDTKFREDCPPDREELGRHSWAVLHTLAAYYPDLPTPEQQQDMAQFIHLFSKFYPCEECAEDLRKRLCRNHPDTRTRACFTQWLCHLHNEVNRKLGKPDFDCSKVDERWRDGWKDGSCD
# Beta apoptosis – blocks beta cell apoptosis; protection from apoptosis, % (concentration not given with the values); 0.8% of 300,000 active; INS-1E cytokine-induced death, ATP luminescence, 48 h; percent of positive-control rescue, neutral wells zero;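 active means all replicates at 75% or more, or half of them and the mean; inconclusive means half reach 75% but not the mean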;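 further: 0% = cytokine-treated negative control wells and 100% = positive control rescue; higher means more ATP so stronger rescue from cytokine killing; wells of about 40 µL received 100 nL stock; the first replicate is given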
# LANA-H2A inh – blocks KSHV LANA binding to histone H2A/H2B; cell-free LANA-H2A/H2B peptide, fluorescence polarization; inhibition, % (no concentration beside the values); 0.6% of 320,000 active; AID 2629; in the data active means inhibition mostly above about 10%, no sharp cut-off; inactive means mostly below about 6.7%;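 further: stock transfer was 7.5 nL into about 10 µL; 0% = median of vehicle wells and 100% = median of positive control wells; one replicate is shown; the record names a cut of 25% in any replicate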
# rRNA inh HTS OD600 – recorded beside rRNA inh HTS, whose call it bears; OD600 change, %; measured here: OD600 growth;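 optical density of the mix in the first replicate; 0 = DMSO median and -100 = no signal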
# rRNA inh HTS RFP – also measured in rRNA inh HTS; calls as there; RFP signal change, %; measured here: RFP humanized mutant strains;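 first replicate; 0 = DMSO median and -100 = no signal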
# * marks the source's active call; other numbers are inactive results; u = inconclusive; x = not tested or not shown. These rows are one share of the data; count on the stated rates, not on these rows.
SMILES,A1 inh,Calb FLC,T cruzi inh,rRNA inh HTS,rRNA inh HTS OD600,rRNA inh HTS RFP,Beta2AR agonist,ALR inh,Beta apoptosis,LANA-H2A inh
CC(C)c1ccc(S(=O)(=O)Nc2ccc(N3CCOCC3)cc2)cc1,1.9,2,-7,-3,-20,-2.8,3,45,x,-3.9
CCOC(=O)c1cc(C#N)c(N2CCNCC2)nc1C(F)(F)F,0.2,-7,17,0,-3,2.7,0,-9,-3,0.2
COc1cccc(OCc2nn3c(=O)c(-c4ccccc4)nnc3s2)c1,-0.4,-1,-2,7,17,0.0,1,4,2,-1.6
CCCC1c2ccsc2CCN1C(=S)NC (centres undefined),0.5,-1,-1,-36*,-19*,-5.6*,3,-10,-5,-26
OC[C@@H](O)[C@@H](O)[C@H](O)[C@@H](O)CO,0.0,-3,-16,12,12,4.4,2,-9,0,-2.6
O=C(COc1ccc(Cl)c(Cl)c1)NN1C(=O)C2C(C1=O)C1C=CC2C12CC2 (centres undefined),0.2,-9,-2,-20,-28,-4.5,0,1,-6,-2.8
Cc1cccn2c(=O)c(/C=C(\C#N)C(N)=O)c(N3CCCCCC3)nc12,0.0,12,4,-26,-44,-7.7,-4,x,-5,6.3
CCOC(=O)N1CCN(C(=O)CN(c2ccc(Cl)c(C(F)(F)F)c2)S(C)(=O)=O)CC1,-0.3,-8,-6,x,x,x,-4,-7,1,1.1
CC1CCN(C(=O)C2CCC(C)(C(=O)O)C2(C)C)CC1 (centres undefined),u,3,-4,x,x,x,-3,x,-11,1.4
Cc1sc2nc(C(C)C)nc(SCC(=O)NCc3ccco3)c2c1C,0.3,3,11,x,x,x,-12,1,-1,-0.5

# The final two entries of the section above are carried over, then new ones follow.
SMILES,A1 inh,Calb FLC,T cruzi inh,rRNA inh HTS,rRNA inh HTS OD600,rRNA inh HTS RFP,Beta2AR agonist,ALR inh,Beta apoptosis,LANA-H2A inh
CC1CCN(C(=O)C2CCC(C)(C(=O)O)C2(C)C)CC1 (centres undefined),u,3,-4,x,x,x,-3,x,-11,1.4
Cc1sc2nc(C(C)C)nc(SCC(=O)NCc3ccco3)c2c1C,0.3,3,11,x,x,x,-12,1,-1,-0.5
C=CCSc1ncc(C(=O)OCC)c(N)n1,-1.5,-40,17,6,7,-7.4,-22,3,-5,2.5
C/C(=N\NC(=O)c1nnn(-c2nonc2N)c1C(C)C)c1cc(C)sc1C,1.7,-5,11,-3,-17,2.1,-14,-1,-2,-3.3
O=C(COC(=O)COc1ccc(Br)cc1)NCc1ccccc1,-0.8,x,x,13,13,0.7,-9,-18,-3,0.6
CC(C)C(=O)NCc1cc(-c2ccccc2)no1,-0.4,-17,-4,2,4,-1.7,5,-18,-1,3.3
O=C(Cn1cccc1C(=O)c1ccccc1)NCCc1ccc(Cl)cc1,0.9,22,9,14,10,1.9,-2,-2,-1,2.0
O=C(COc1ccccc1)NC(NC(=S)Nc1ccccc1O)C(Cl)(Cl)Cl (centres undefined),0.3,-5,-22,x,x,x,4,74,-6,-2.9
O=C(Cn1nnc(-c2ccc(Cl)cc2)n1)NC1CC2CCC1C2 (centres undefined),-1.2,-25,3,x,x,x,-6,-4,-9,1.7
Cc1cc2c(cc1S(=O)(=O)NCc1ccc(N(C)C)cc1)OCC(=O)N2,0.0,-4,2,2,6,1.1,-7,x,-3,4.8
COc1cc(C=O)ccc1OCCOCCOc1cc(C)ccc1Cl,0.9,-4,0,x,x,x,4,-9,7,0.1
NS(=O)(=O)c1cccc(NC(=O)c2cccc(S(=O)(=O)N3CCCCCC3)c2)c1,-0.4,x,x,-11,-16,3.8,-2,1,0,1.7
Cc1ccccc1-n1c(O)c(/C=C/C=Nc2ccccc2)c(=O)[nH]c1=O,0.3,-8,-4,x,x,x,-55,-9,x,-37
O=C(Nn1cnnc1)c1ccc(Cl)cc1[N+](=O)[O-],-0.3,1,-6,16,15,2.2,0,x,-7,-2.0
O=[N+]([O-])c1ccc2c(c1)c(-c1ccccc1)nc1nncn12,x,-4,-17,24,13,4.5,5,x,x,x
O=C(O)c1cc(-c2ccc(Cl)cc2)n(-c2cccc(Cl)c2)n1,u,17,-10,1,-18,-2.2,4,6,-2,-4.3
COc1ccc(C2N=C(c3ccccc3)C(C)(C)N2O)cc1 (centres undefined),0.1,7,-20,-2,0,-2.0,-2,7,x,11
O=S(=O)(c1ccccc1)N(CC1CO1)c1cc(Cl)ccc1Cl (centres undefined),0.6,-1,2,-23,-20,-8.6,-5,x,3,-8.6
Cc1ccc(C(=O)OCC(=O)NCCc2ccc(F)cc2)cc1S(=O)(=O)N1CCOCC1,0.1,x,x,0,0,-3.9,1,-3,4,1.0
O=C(c1cc(-c2cccs2)on1)N1CCc2ccccc2C1,-0.9,-5,-13,x,x,x,-13,-5,-2,-3.5
CN(C)c1cccc2c1c(NC(=O)Nc1ccccc1)nn2C,0.8,27,x,-18*,11*,2.4*,-4,5,-5,-1.9
c1coc(-c2nnc(SCc3cn4ccccc4n3)o2)c1,-1.3,-5,-8,x,x,x,-6,1,-2,9.9
CSc1n[nH]c(NCc2ccc(Cl)cc2)n1,1.1,-4,-8,x,x,x,2,4,-3,4.0
COc1ccccc1CCNC(=O)CSc1ccc(-c2ccco2)nn1,0.8,14,-11,-1,6,1.8,-12,46,-4,-0.8
CCCc1nc2ccc(NC(C)=O)cc2c(=O)n1Cc1ccccc1Cl,-0.1,6,48,-11,-9,4.8,-6,-9,-1,5.7
Cc1cc(C(=O)N/N=C/c2ccc(Cl)c([N+](=O)[O-])c2)c(C)n1-c1ccc(F)cc1,0.0,9,15,-15,-3,-1.2,6,-2,-1,1.3
O=C(N/N=C\C=C\c1ccc2c(c1)OCO2)C1COc2ccccc2O1 (centres undefined),-1.3,0,-13,4,2,3.1,6,8,-3,-4.2
CCC(=O)N1CCc2cc(S(=O)(=O)CCC(=O)Nc3ccc(OC)cc3)ccc21,0.5,-13,9,0,0,-1.3,-17,-14,-3,3.2
COc1cc(OC)cc(C(=O)Nn2cc(C(=O)Nc3ccc(F)cc3F)c3ccccc3c2=O)c1,0.3,8,-9,x,x,x,-2,-8,3,1.5
Cc1noc(N)c1C1(O)C(=O)N(C(C)C)c2ccccc21 (centres undefined),0.5,-19,3,9,12,-2.0,-3,1,-8,2.8
O=C(COC(=O)c1ccccc1Br)NCCN1C(=O)CSC1=O,1.1,7,-3,4,5,-10,-6,-4,-4,-10.0
CC(C)(C)c1ccc(CSc2nnc(-c3ccccc3NC(=O)c3ccccc3)o2)cc1,0.0,-1,14,x,x,x,2,x,-7,-0.4

# 2 entries picked at random from those above, as already listed:
SMILES,A1 inh,Calb FLC,T cruzi inh,rRNA inh HTS,rRNA inh HTS OD600,rRNA inh HTS RFP,Beta2AR agonist,ALR inh,Beta apoptosis,LANA-H2A inh
CC(C)(C)c1ccc(CSc2nnc(-c3ccccc3NC(=O)c3ccccc3)o2)cc1,0.0,-1,14,x,x,x,2,x,-7,-0.4
CSc1n[nH]c(NCc2ccc(Cl)cc2)n1,1.1,-4,-8,x,x,x,2,4,-3,4.0

# Remaining list, next part
SMILES,A1 inh,Calb FLC,T cruzi inh,rRNA inh HTS,rRNA inh HTS OD600,rRNA inh HTS RFP,Beta2AR agonist,ALR inh,Beta apoptosis,LANA-H2A inh
CCOc1ccc(C(C)=O)cc1CN1C(=O)NC2(CCCCCCC2)C1=O,-0.8,-20,5,-40*,-14*,-3.7*,-8,x,3,x
COC(=O)c1ccccc1NC(=O)C1CCN(S(C)(=O)=O)CC1,0.3,0,-5,x,x,x,1,0,-9,2.3
CCOC(=O)c1c(C)nn(Cc2ccccc2)c1N,0.8,6,-15,x,x,x,-3,16,-2,4.3
Cc1cccc(NC(=S)NC2CC3CCCC(C2)N3Cc2cccs2)c1C (centres undefined),-0.2,-13,14,6,-7,0.9,19,6,11,-5.6
CC(=O)NC(=S)Nc1ccc(S(=O)(=O)Nc2ncccn2)cc1,0.2,2,0,4,-5,2.7,8,2,-6,-5.6
O=C(c1ccc(S(=O)(=O)N2CCCC2)cc1)N(c1ccc(F)cc1)C1C=CS(=O)(=O)C1 (centres undefined),1.0,-2,8,19,10,4.9,2,-1,7,-2.5
O=C(NCc1cccnc1)c1ccccc1NS(=O)(=O)c1ccc(F)cc1,0.1,-7,4,2,-15,-1.3,1,1,5,1.7
Cn1c(=O)c2[nH]c(CNc3ccc(C(=O)O)cc3)nc2n(C)c1=O,0.2,7,-21,18,19,4.1,4,-6,-5,-3.1
O=C(Oc1cccc(N2C(=O)CCC2=O)c1)c1ccccc1,-0.4,5,9,x,x,x,2,-2,-2,1.8
O=C(c1ccc(CN2CCOCC2)cc1)N1CCN(c2ccccc2F)CC1,0.6,-11,-14,x,x,x,5,10,0,-1.1

# Reprinted from the part before: two compounds, then new ones.
SMILES,A1 inh,Calb FLC,T cruzi inh,rRNA inh HTS,rRNA inh HTS OD600,rRNA inh HTS RFP,Beta2AR agonist,ALR inh,Beta apoptosis,LANA-H2A inh
O=C(Oc1cccc(N2C(=O)CCC2=O)c1)c1ccccc1,-0.4,5,9,x,x,x,2,-2,-2,1.8
O=C(c1ccc(CN2CCOCC2)cc1)N1CCN(c2ccccc2F)CC1,0.6,-11,-14,x,x,x,5,10,0,-1.1
CC1=NNC(=O)C1CCC(=O)N/N=C/c1ccc(Cl)cc1 (centres undefined),0.4,2,-1,12,15,-0.2,9,17,-1,1.1
CC(Oc1cc2oc(=O)c3c(c2cc1Cl)CCC3)C(=O)NCCCN1CCCC1=O (centres undefined),0.2,-2,4,-11,-11,2.5,-9,-7,4,-2.2
c1nnn(C23CC4CC(CC(C4)C2)C3)n1,0.0,-21,5,x,x,x,-4,-6,3,-0.7
COc1cc(OC)cc(C(=O)NCC(=O)OCC(=O)N2CC(C)CC(C)C2)c1 (centres undefined),0.1,1,-12,8,7,2.0,-4,-2,-2,2.0
O=C(c1ccco1)N1CCN=C1SCc1cccc(Cl)c1,-0.4,1,1,-3,4,-2.1,-5,97*,-1,-2.7
CC(C)(C)C(=O)NC(=S)N1CCCC1,-0.3,10,-19,x,x,x,0,3,-6,-1.6
COc1ccc(NC(=O)COc2cccc3c2CCN(Cc2cccnc2)C3=O)cc1,0.0,0,0,-5,-4,-2.4,-3,-3,8,2.2
Cc1ccc2nc(NNC(=O)c3ccc(S(=O)(=O)N4CCc5ccccc5C4)cc3)sc2c1,u,59,71*,-13,-10,1.6,16,2,98*,-0.6
CCCN(CCC)c1ncnc2nc[nH]c12,0.3,3,-20,-6,-4,-3.8,6,-4,-10,5.3
C=CCS(=O)(=O)N1CCCC(Cc2ccccc2C)(C(=O)OCC)C1 (centres undefined),0.9,20,1,8,2,-1.8,-2,x,x,-3.1
COc1cc(NC(=S)NCCc2c[nH]c3ccccc23)c(OC)cc1Cl,-0.8,-6,19,x,x,x,16,-21,-4,1.0
COC(=O)c1cn(N(C)c2ncc(C(F)(F)F)cc2Cl)c(=O)c2ccccc12,0.4,-10,6,x,x,x,-2,-55,3,5.0
